# Bioassay records from PubChem BioAssay.
# RGS16-Gao: modulates binding between human RGS16 and Galphao; AID 1441; bead-based flow cytometry RGS16-Galphao binding, fluorescence; actives lie on both sides; 220,000 compounds, 0.38% hits; binding response (% of control), % at 10 µM;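 active means below 25% or above 175%, edge rows of some plates excepted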;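 further: Galphao activated by GDP with aluminum fluoride before binding; 100% = wells without compound and 0% = beads without RGS; some results beyond the cut were filed as inactive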
# PKD1 inh: blocks activity of human protein kinase D1 | PKD1 kinase fluorescence polarization assay | 200,000 compounds, 0.056% hits | inhibition, %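 (about 10 µM by stock and volumes)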 | Q15139;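 active means inhibition of 50% or more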;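 further: controls were vehicle for no effect and a reference inhibitor for full effect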
# Target sequence (Q15139 whole entry, looked up): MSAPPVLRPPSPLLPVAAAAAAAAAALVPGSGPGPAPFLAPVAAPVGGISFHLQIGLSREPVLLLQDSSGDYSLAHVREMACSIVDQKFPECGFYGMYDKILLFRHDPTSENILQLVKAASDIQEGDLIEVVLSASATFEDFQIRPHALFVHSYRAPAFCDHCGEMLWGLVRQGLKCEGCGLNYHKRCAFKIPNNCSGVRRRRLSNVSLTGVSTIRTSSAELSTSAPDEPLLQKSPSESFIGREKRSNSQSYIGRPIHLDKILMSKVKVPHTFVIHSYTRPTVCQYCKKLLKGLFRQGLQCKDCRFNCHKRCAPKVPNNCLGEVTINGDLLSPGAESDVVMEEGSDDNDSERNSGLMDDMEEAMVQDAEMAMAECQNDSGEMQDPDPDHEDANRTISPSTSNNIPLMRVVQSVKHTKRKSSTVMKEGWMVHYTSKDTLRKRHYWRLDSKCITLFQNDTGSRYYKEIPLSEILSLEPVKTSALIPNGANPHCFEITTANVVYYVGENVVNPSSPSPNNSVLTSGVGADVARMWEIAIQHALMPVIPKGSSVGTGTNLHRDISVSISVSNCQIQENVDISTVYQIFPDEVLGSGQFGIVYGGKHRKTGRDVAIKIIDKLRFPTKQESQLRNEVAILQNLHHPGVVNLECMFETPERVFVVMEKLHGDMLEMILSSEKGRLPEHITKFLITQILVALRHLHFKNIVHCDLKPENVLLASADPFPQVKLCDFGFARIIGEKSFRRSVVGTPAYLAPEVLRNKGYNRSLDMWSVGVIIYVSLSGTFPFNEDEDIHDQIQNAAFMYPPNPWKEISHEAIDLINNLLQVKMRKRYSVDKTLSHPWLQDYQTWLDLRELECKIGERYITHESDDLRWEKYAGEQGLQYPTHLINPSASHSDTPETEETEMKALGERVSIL
# HSV replic up: HSV replication enhancement; 220,000 compounds, 0.005% hits; maximum fold increase; HSV replication augmentation in cells, fold increase;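 active means peak rise of 1.5-fold or more in the series; tested in PC3 cells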;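 further: first round at 10 µM; read as green reporter fluorescence; hits show the peak of a series up to 25 µM; 1 = signal of infected wells without compound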
# Insulin prom inh: TRM-6 insulin promoter activity inhibition | TRM-6 cells (human fetal islet line), insulin promoter-eGFP reporter, imaging; reporter expression induced with tamoxifen | inhibition, % at 2 µM | 130,000 compounds, 0.9% hits | AID 1273;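 active means inhibition above the mean plus 3 SD, with well images judged a real hit on visual review, cut at about 60% in these data, passing the limit was not always enough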
# GALR2 agonist: GALR2 (human) receptor agonism. 140,000 compounds, 0.48% hits. activation, %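 (tested at 5 µM)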. GALR2-expressing cells, agonist activation read-out;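 active means above mean plus 3 SD of all compounds, about 5% in these data, not always enough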;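 further: 0% = vehicle buffer wells and 100% = reference agonist at full effect; tested in CHO reporter cells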
# Insulin prom inh cell count: second read-out of Insulin prom inh, no call of its own (marks repeat the call); normalized cell count, %; measured here: cell count, toxicity; reference of the scale not given here;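 cells exposed to compound for 48 h; stained nuclei by imaging scaled within each plate; lower means fewer cells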
# HSV replic up primary fold: recorded beside HSV replic up, whose call it bears; fold increase; compound at 10 µM; measured here: primary screen fold increase 10 uM; tested in PC3 cells;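 GFP signal in the first replicate; 1 = infected wells without compound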
# Numbers without * were called inactive; i = inactive; x = no result given.
SMILES,RGS16-Gao,PKD1 inh,HSV replic up,HSV replic up primary fold,Insulin prom inh,Insulin prom inh cell count,GALR2 agonist
Cc1csc(SCc2nc3scc(-c4ccccc4)c3c(=O)[nH]2)n1,100,-4,i,1,-53,103,x
CCCCn1cnc2c(c(-c3ccccc3)c(-c3ccccc3)n2Cc2ccco2)c1=N,100,x,i,0.63,x,x,x
COc1ccc(C(=O)NNC2=NC(C)(C)Cc3ccccc32)cc1,113,-7,i,1,-23,28,-1.4
Cn1nccc1C(=O)Nc1ccc2c(c1)OCCO2,102,-2,i,0.9,x,x,x
COc1ccccc1OCC(=O)NN1Cc2ccccc2C1=N,98,-3,i,0.99,x,x,-2.1
COc1cc(NC(=O)C(=O)NNC(=O)C2CCCCC2)c(OC)cc1Cl,111,-5,i,0.91,30,144,0.3
CCn1c(COc2ccccc2)nnc1SCC(=O)C(C)(C)C,104,6,i,0.85,0,77,-0.6
CN(C)c1ccc(C(=O)/C=C/c2ccc(Br)cc2)cc1,97,-12,i,0.9,12,73,-2.3
COc1ccc(CCC(C)Nc2ccc(F)cc2)cc1 (centres undefined),123,10,i,0.94,-19,105,-2.1
CCCc1[nH]nc2c1C(c1ccc(OCCN3CCOCC3)c(OCC)c1)C(C#N)=C(N)O2 (centres undefined),102,-2,i,0.77,-263,61,-1.1
Fc1ccc(-c2nnc(CSc3nnc(-c4ccc5c(c4)OCO5)o3)o2)cc1,104,-6,i,0.67,-35,60,-1.5
Cc1cccn2c(=O)c3cc(C(=O)NCc4ccco4)c(=N)n(CCOCCO)c3nc12,92,3,i,0.97,11,106,-0.5
CCc1cccc(NC(=O)CN2C(=O)NC3(CCCCCCC3)C2=O)c1,91,3,i,0.84,x,x,-0.6
O=C(O)C1CC(=O)N(c2ccc(OCc3ccccc3Cl)cc2)C1 (centres undefined),104,-2,i,1.1,-11,155,0.7
CCn1ccc(C(=O)Nc2ccccc2Cl)n1,98,3,i,0.99,x,x,x
O=C(CN1C(=O)C2CC=CCC2C1=O)NCC(=O)Nc1ccc(F)c(F)c1F (centres undefined),109,-9,i,0.94,x,x,x
C=CCO/N=C(\C)c1c(O)c(C)c(-c2ccccc2)n(-c2ccccc2)c1=O,101,-9,i,0.98,-235,70,-1.8
COc1ccc(Cl)cc1NC(=S)NNC(=O)C1(C)CC1(Cl)Cl (centres undefined),100,-7,i,1.2,x,x,x
Cc1nn(-c2ccc(Cl)cc2)c2sc(C(=O)c3c(N)n(C)c(=O)n(C)c3=O)cc12,89,4,i,0.88,0,51,-0.1
COc1cccc(/C=N/N2CCOCC2)c1O,103,-2,i,0.97,x,x,1.7
COC(=O)Nc1nc(-c2cc(Cl)ccc2Cl)cs1,102,-4,i,1,x,x,x
CCNc1ccccc1C(=O)O,103,x,i,1.1,x,x,x
COc1ccc(CCNC(=O)CCSc2nc(-c3ccco3)cc(C(F)(F)F)n2)cc1OC,98,-9,i,0.72,-5,37,-0.7
Cc1ccc2c(c1)NC(=O)C(N1CCOCC1)(C(F)(F)F)O2 (centres undefined),94,13,i,1,-50,101,1.7
COc1ccc(C)cc1NC(=O)c1ccoc1C,100,-7,i,0.85,-11,134,-3.2
# (continued)
SMILES,RGS16-Gao,PKD1 inh,HSV replic up,HSV replic up primary fold,Insulin prom inh,Insulin prom inh cell count,GALR2 agonist
O=C(CCCCCCCC(=O)c1ccccc1)c1ccccc1,107,-1,i,1,x,x,x
O=C(Nc1ccccc1F)NC1CC1,100,-10,i,0.86,x,x,x
O=C(/C=C/c1c(Cl)cccc1Cl)NCc1ccco1,103,-1,i,0.98,-14,110,-1.1
O=C(COC(=O)c1ccc[nH]c1=O)NCCc1ccc(F)cc1,107,-2,i,0.96,0,114,x
O=C(CCNS(=O)(=O)c1ccc(Br)s1)NCc1ccc(F)cc1,97,-6,i,1.1,-31,89,x
Cc1ccc(NC(=O)COC(=O)C(CC(C)C)N2C(=O)C3CC=CCC3C2=O)c(C)c1 (centres undefined),98,1,i,0.95,x,x,-0.8
O=C(c1cc2nc(-c3ccc(F)cc3)cc(C(F)(F)F)n2n1)N1CCCC1,98,-9,i,0.87,57,128,0.9
Nc1nc(=S)c2ncn(C3OC(CO)C(O)C3O)c2[nH]1 (centres undefined),98,x,i,0.97,x,x,x
O=C(CN1C2=NCCN2c2ccccc21)c1ccc2c(c1)OCO2,102,-6,i,0.71,45,125,-1.2
O=C(COc1ncnc2sccc12)NC1CCCc2ccccc21 (centres undefined),104,-2,i,0.89,x,x,-0.5
COc1ccc(Cc2nnc(N/N=C(\C)c3ccccc3)[nH]c2=O)cc1OC,100,x,i,0.99,x,x,x
CCOC(=O)c1c(C)[nH]c(C(=O)COC(=O)/C=C/c2ccc(OCC#N)c(OC)c2)c1C,99,-2,i,0.8,x,x,x
Cc1ccc(S(=O)(=O)N2CCOCC2)cc1NC(=O)COC(=O)c1ccc2c(c1)OCO2,100,-2,i,0.94,x,x,x
CC12CN3CC(C)(CN(C1)C3c1ccc(Cl)cc1Cl)C2=O (centres undefined),99,-12,i,1.2,x,x,-0.1
O=C(COC(=O)C1(c2ccccc2F)CCCC1)NCc1cccs1,99,1,i,1.1,-44,114,x
CC(=O)Nc1ccc(S(=O)(=O)Nc2nccc(/C=C/c3ccccc3F)n2)cc1,106,-2,i,0.91,x,x,x
CCOc1ccc(N=C(NC#N)SC)cc1,97,0,i,1.2,-73,106,-1.5
CS(=O)(=O)N(CC(O)CON=C1c2ccccc2-c2ccccc21)c1ccc(F)cc1 (centres undefined),90,2,i,0.76,-6,141,0.9
O=C(CSc1nnc2ccccn12)NCc1cccs1,102,-5,i,0.95,-3,111,-1.5
COc1ccc(OC)c(C2=NOC(C(=O)NCc3ccccn3)C2)c1 (centres undefined),97,-6,x,x,x,x,-1.9
C=CCn1c(SCc2cccc3ccccc23)nnc1-c1cccnc1,99,-4,i,0.89,-41,199,-3.9
COc1cc(/C=N/NC(=O)c2ccoc2C)ccc1O,74,-3,i,1.1,x,x,-1.9
O=C(c1ccc([N+](=O)[O-])cc1)N1CCN(c2cccc3[nH]ccc23)CC1,97,x,i,0.94,x,x,x
CCOC(=O)c1c(NC(=O)COC)sc(C)c1C,109,-1,i,0.97,x,x,-1.0
CCN(CC)S(=O)(=O)c1ccc(OC)c(NC(=S)Nc2cccc(C)c2)c1,99,-6,i,0.98,1,86,-1.2

# One compound at a time, from the list above. Screens in order: RGS16-Gao, PKD1 inh, HSV replic up, HSV replic up primary fold, Insulin prom inh, Insulin prom inh cell count, GALR2 agonist
# Listed for CC(=O)Nc1ccc(S(=O)(=O)Nc2nccc(/C=C/c3ccccc3F)n2)cc1 → 106, -2, i, 0.91, x, x, x
# Listed for O=C(c1ccc([N+](=O)[O-])cc1)N1CCN(c2cccc3[nH]ccc23)CC1 → 97, x, i, 0.94, x, x, x

# A second format for part of the listing above.
Molecule | RGS16-Gao | PKD1 inh | HSV replic up | HSV replic up primary fold | Insulin prom inh | Insulin prom inh cell count | GALR2 agonist
C=CCn1c(SCc2cccc3ccccc23)nnc1-c1cccnc1 | 99 | -4 | i | 0.89 | -41 | 199 | -3.9
O=C(c1ccc([N+](=O)[O-])cc1)N1CCN(c2cccc3[nH]ccc23)CC1 | 97 | x | i | 0.94 | x | x | x
CCN(CC)S(=O)(=O)c1ccc(OC)c(NC(=S)Nc2cccc(C)c2)c1 | 99 | -6 | i | 0.98 | 1 | 86 | -1.2
O=C(CCNS(=O)(=O)c1ccc(Br)s1)NCc1ccc(F)cc1 | 97 | -6 | i | 1.1 | -31 | 89 | x
O=C(COc1ncnc2sccc12)NC1CCCc2ccccc21 (centres undefined) | 104 | -2 | i | 0.89 | x | x | -0.5
CC12CN3CC(C)(CN(C1)C3c1ccc(Cl)cc1Cl)C2=O (centres undefined) | 99 | -12 | i | 1.2 | x | x | -0.1

# Fetched one by one from the entries so far, two records:
SMILES,RGS16-Gao,PKD1 inh,HSV replic up,HSV replic up primary fold,Insulin prom inh,Insulin prom inh cell count,GALR2 agonist
Cc1cccn2c(=O)c3cc(C(=O)NCc4ccco4)c(=N)n(CCOCCO)c3nc12,92,3,i,0.97,11,106,-0.5
COc1cc(/C=N/NC(=O)c2ccoc2C)ccc1O,74,-3,i,1.1,x,x,-1.9

# Next section
SMILES,RGS16-Gao,PKD1 inh,HSV replic up,HSV replic up primary fold,Insulin prom inh,Insulin prom inh cell count,GALR2 agonist
O=c1c2[nH]c3ccccc3c2ncn1CCN1CCOCC1,97,-3,i,1.1,9,108,-1.6
N#CC1=C(N)Oc2c(O)cc3ccccc3c2C1c1ccsc1 (centres undefined),97,-3,i,0.91,x,x,0.7
COc1ccc2c(c1)NC(C)(C)C=C2C,101,3,i,1.1,x,x,x
Cc1nc2ccc(NC(=O)c3ccco3)cc2nc1C,102,-4,i,1.1,x,x,x
COc1cccc(C(=O)NC2CC3CCCC(C2)N3CC(=O)Nc2ccccc2)c1 (centres undefined),99,-10,i,0.87,62,132,-2.3
CC(C)CNC(=S)N1CCN(c2nc3ccccc3s2)CC1,106,1,i,1.1,x,x,x
CCCN=C(N)/C(C(=O)OCC)=C(\O)c1ccc(OC)cc1,69,2,i,0.93,-36,135,-1.5
CC(=O)NNC(=S)NC(=O)C(c1ccccc1)c1ccccc1,115,-2,i,1,x,x,x
CC(C)(C)c1ccc(NC(=O)CSc2nnc(-c3n[nH]c4ccccc34)o2)cc1,74,-12,i,1,63,88,1.1
CCN(CC(=O)N1CCN(C)CC1)S(=O)(=O)c1ccc(Cl)cc1,100,-1,i,0.97,12,97,0.0
COC(=O)[C@@H](NC(=O)NC(C)CCc1ccccc1)C(C)C (some centres undefined),97,3,i,0.96,x,x,-1.0
C[C@@H]1NC(=O)[C@H](CC(N)=O)NC(=O)c2cc([N+](=O)[O-])cc(I)c2OCC[C@@H](C(=O)NC(CC(=O)O)C(N)=O)NC1=O (some centres undefined),111,6,i,0.82,18,95,-0.8
Cc1ccc(-c2cc(C(F)F)n3ncc(C(=O)N4CCCCC4c4cccnc4)c3n2)cc1 (centres undefined),94,-3,i,0.83,x,x,x
Cc1ccc(N2NC(=O)/C(=C/c3ccc(-c4ccc(Cl)c(C(=O)O)c4)o3)C2=O)cc1,87,-1,i,1.1,-36,41,x
Cc1cc(C)cc(N(C(=O)c2ccccn2)C(C(=O)NC2CCCCC2)c2cccs2)c1 (centres undefined),109,-8,i,0.86,-55,102,-2.0
CCOc1ccc(N2C(=O)CC(N)C2=O)cc1 (centres undefined),94,5,i,0.96,-8,153,-1.4
CC1CC1C(=O)OCC(=O)Nc1ccccc1Oc1ccccc1 (centres undefined),102,-2,i,0.91,43,92,x
Cc1ccc(C=Nc2ccccc2C(N)=O)o1,45,-8,i,0.9,x,x,-2.1
O=C(Nc1ccccc1Cl)N1CCN(C/C=C/c2ccccc2)CC1,102,-13,i,1,17,112,-1.2
COc1ccc(CNC(=O)c2c(C)nc3ccccn23)cc1,108,-10,i,0.76,-63,97,0.1
O=c1c(C(c2ccc(F)cc2)c2c(O)nc3n(c2=O)CCS3)c(O)nc2n1CCS2,102,x,i,0.89,x,x,x
C/C=C\C=C/C(=O)Nc1cccc(C2=NOC3(C2)C[C@@H](C(N)=O)N(C(=O)/C=C/C=C\C)C3)c1 (some centres undefined),78,x,i,0.78,x,x,x
COC(=O)c1ccccc1NC(=O)C1CCN(C(=O)c2ccc(OC)cc2)CC1,108,-3,i,0.99,-23,131,0.2

# Hits appear at their usual frequency; about 1.3% have a hit in one of these screens.
